Env fusion inh: HIV envelope-mediated fusion inhibition; AID 651610; HeLa-JRFL Env/CEM21 cell fusion, luciferase; inhibition, % at 12.3 µM; 1.1% of 360,000 active;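 active = mean replicate inhibition score of at least 50 and every replicate individually at or above 50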;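 also: 0% = plate neutral controls and 100% = maraviroc near 300 nM; one replicate is shown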
Yeast UUG start: modulators of start codon recognition fidelity in yeast | 0.13% of 350,000 active | S. cerevisiae UUG-firefly luciferase reporter, luminescence/redox ratio | activity score, % at 18.7 µM;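 active = replicate mean at a twofold rise or more, about +100% in these data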;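 also: firefly luciferase made from a UUG start codon reports start codon fidelity; reporter light over untreated wells divided by growth signal over untreated wells; some hits fall short of that in this replicate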
* = called active by the depositor; [ ] = dose if it differs, or a comment. Not all compounds are listed; rates above refer to the full screens.

SMILES | Env fusion inh | Yeast UUG start
O=C(CS)NCCCCCCNC(=O)[C@H]1C[C@H]2C(=O)NCC(=O)N2[C@H]1c1cccc(OCCO)c1 | -26[16.7 µM] | 11
COc1ccccc1NC(=O)N(C)C[C@H]1Oc2cc(Br)ccc2S(=O)(=O)N([C@@H](C)CO)C[C@@H]1C | 25[16.7 µM] | 162*
C[C@H](CO)N1C[C@H](C)[C@H](CN(C)CC2CCCCC2)Oc2c(NC(=O)c3ccncc3)cccc2C1=O | 12[16.7 µM] | 3
C[C@@H]1CN([C@@H](C)CO)S(=O)(=O)c2ccc(/C=C/c3ccccc3)cc2O[C@@H]1CN(C)C(=O)c1ccncc1 | 6[16.7 µM] | -12
CN1C(=O)c2cc(NC(=O)C3CCOCC3)ccc2OC[C@H]2O[C@H](CC(=O)NCc3ccccc3F)CC[C@H]21 | 5[16.7 µM] | -4
Cc1ccc(S(=O)(=O)N(C)C[C@H]2OCCCC[C@@H](C)Oc3ccc(NC(=O)Nc4c(C)noc4C)cc3C(=O)N([C@@H](C)CO)C[C@@H]2C)cc1 | -83[16.7 µM] | -5
N#C[C@@H]1[C@H](c2ccc(-c3cccnc3)cc2)[C@H](CO)N1C(=O)C1CCOCC1 | 10[16.7 µM] | -7
C[C@H](CO)N1C[C@H](C)[C@H](CN(C)C(=O)Nc2ccccc2)OCCCC[C@H](C)Oc2ccc(NC(=O)Nc3cccc4ccccc34)cc2C1=O | -44[16.7 µM] | -8
C[C@@H]1CCCCO[C@H](CN(C)Cc2ccc(C(F)(F)F)cc2)[C@H](C)CN([C@@H](C)CO)C(=O)c2cc(NC(=O)Nc3ccc(F)cc3)ccc2O1 | 44[16.7 µM] | 7
COc1cccc(S(=O)(=O)Nc2ccc3c(c2)C(=O)N(C)[C@@H]2CC[C@H](CC(=O)O)O[C@H]2CO3)c1 | -21[16.7 µM] | -11
C[C@@H]1CN([C@H](C)CO)C(=O)Cc2cc(NC(=O)CCN3CCOCC3)ccc2O[C@@H]1CN(C)Cc1ccc2c(c1)OCO2 | -5[16.7 µM] | -2
CN(C)Cc1cn(CC[C@H]2CC[C@@H](NC(=O)Nc3ccc4c(c3)OCO4)[C@@H](CO)O2)nn1 | -27[16.7 µM] | -3
O=C(Nc1cc(F)ccc1F)N[C@@H]1CC[C@@H](CCn2cc(C3CCCCC3)nn2)O[C@H]1CO | -15[16.7 µM] | -12
C[C@H]1CN([C@@H](C)CO)C(=O)c2cccc(NS(=O)(=O)c3ccc(Cl)cc3)c2O[C@@H]1CN(C)Cc1ccc(C(F)(F)F)cc1 | 57*[16.7 µM] | -4
C[C@@H]1CN([C@H](C)CO)C(=O)c2cc(N(C)C)ccc2O[C@@H](C)CCCCO[C@H]1CN(C)C(=O)CCC(F)(F)F | -27[16.7 µM] | 9
Cc1noc(C)c1S(=O)(=O)Nc1ccc2c(c1)CC(=O)N([C@H](C)CO)C[C@@H](C)[C@H](CN(C)S(=O)(=O)c1ccccc1)O2 | -9[16.7 µM] | 21
C[C@@H]1CN([C@@H](C)CO)C(=O)c2cccc(NS(C)(=O)=O)c2O[C@@H]1CN(C)C(=O)Nc1ccc2c(c1)OCO2 | 7[16.7 µM] | 35
O=C(Nc1ccc(F)cc1)N[C@@H]1CC[C@H](CCNC(=O)c2cc(Cl)cc(Cl)c2)O[C@@H]1CO | 14[16.7 µM] | 1
CCCC#Cc1cnc2c(c1)C(=O)N([C@H](C)CO)C[C@@H](C)[C@@H](CN(C)Cc1ccc(C(=O)O)cc1)O2 | 3[16.7 µM] | -3
C[C@H](CO)N1C[C@H](C)[C@H](CN(C)C(=O)c2cccnc2)Oc2ncc(C#CCN(C)C)cc2C1=O | -10[16.7 µM] | -14
C[C@H]1CN([C@@H](C)CO)C(=O)Cc2cc(NC(=O)NC3CCCCC3)ccc2O[C@H]1CN(C)Cc1ccc(Oc2ccccc2)cc1 | -10[16.7 µM] | -12
O=C(Cc1ccncc1)Nc1ccc2c(c1)[C@H]1C[C@@H](CC(=O)NC3CCCC3)O[C@@H](CO)[C@H]1O2 | -8[16.7 µM] | -8
CC(C)NC(=O)Nc1ccc2c(c1)C(=O)N([C@H](C)CO)C[C@H](C)[C@H](CN(C)C(=O)Nc1ccc(C(F)(F)F)cc1)OCCCC[C@H](C)O2 | -23[16.7 µM] | 3
CCNC(=O)C[C@H]1CC[C@H]2[C@@H](COC[C@@H](O)CN2Cc2ccncc2)O1 | -6[16.7 µM] | -16
COc1ccc(CN(C)C[C@H]2OCCCC[C@H](C)Oc3ccc(NC(=O)CCCN(C)C)cc3C(=O)N([C@H](C)CO)C[C@H]2C)cc1 | -1[16.7 µM] | 24

The closing four compounds of the part before are carried over, then new ones follow.
SMILES | Env fusion inh | Yeast UUG start
O=C(Cc1ccncc1)Nc1ccc2c(c1)[C@H]1C[C@@H](CC(=O)NC3CCCC3)O[C@@H](CO)[C@H]1O2 | -8[16.7 µM] | -8
CC(C)NC(=O)Nc1ccc2c(c1)C(=O)N([C@H](C)CO)C[C@H](C)[C@H](CN(C)C(=O)Nc1ccc(C(F)(F)F)cc1)OCCCC[C@H](C)O2 | -23[16.7 µM] | 3
CCNC(=O)C[C@H]1CC[C@H]2[C@@H](COC[C@@H](O)CN2Cc2ccncc2)O1 | -6[16.7 µM] | -16
COc1ccc(CN(C)C[C@H]2OCCCC[C@H](C)Oc3ccc(NC(=O)CCCN(C)C)cc3C(=O)N([C@H](C)CO)C[C@H]2C)cc1 | -1[16.7 µM] | 24
Cc1noc(C)c1NC(=O)Nc1ccc2c(c1)C(=O)N([C@H](C)CO)C[C@@H](C)[C@H](CN(C)S(=O)(=O)c1cccs1)OCCCC[C@@H](C)O2 | 0[16.7 µM] | 4
O=C(N[C@H]1CC[C@@H](CCNC(=O)C2CCCC2)O[C@@H]1CO)c1ccncc1 | 12[16.7 µM] | -25
CCNC(=O)Nc1ccc2c(c1)C(=O)N(C)[C@H]1CC[C@@H](CC(=O)NCc3ccccc3F)O[C@H]1CO2 | 8[16.7 µM] | 2
C[C@@H]1CN([C@H](C)CO)C(=O)c2cc(Br)cnc2O[C@H]1CN(C)C(=O)Nc1ccccc1 | -10[16.7 µM] | 19
Cc1noc(C)c1NC(=O)N[C@H]1C=C[C@@H](CC(=O)Nc2ccc(-c3ccccc3)cc2)O[C@@H]1CO | 14[16.7 µM] | -9
C[C@@H]1CCCCO[C@@H](CN(C)CC2CCCCC2)[C@H](C)CN([C@@H](C)CO)C(=O)c2cc(NC(=O)Nc3cccc4ccccc34)ccc2O1 | 20[16.7 µM] | 16
C[C@@H]1CN([C@@H](C)CO)S(=O)(=O)c2ccc(-c3cccnc3)cc2O[C@@H]1CN(C)C(=O)c1cccc(F)c1 | -8[16.7 µM] | 10
CO[C@H]1CN(C)C(=O)c2ccc(NC(=O)Nc3ccc(Cl)c(Cl)c3)cc2OC[C@H](C)NC[C@H]1C | 4[16.7 µM] | 19
COc1ccc(S(=O)(=O)N[C@@H]2CC[C@H](CCn3cc(-c4ccccc4F)nn3)O[C@@H]2CO)cc1 | -13[16.7 µM] | -12
COc1ccc(CN(C)C[C@@H]2OCCCC[C@H](C)Oc3ccc(NC(=O)NC(C)C)cc3C(=O)N([C@H](C)CO)C[C@H]2C)cc1 | -3[16.7 µM] | 10
C[C@@H]1CN([C@H](C)CO)S(=O)(=O)c2ccc(C#C[C@@H](C)O)cc2O[C@@H]1CN(C)CC1CCOCC1 | 5[16.7 µM] | -6
CNC[C@H]1Oc2ccc(NC(=O)Cc3ccccc3)cc2C(=O)N([C@H](C)CO)C[C@H]1C | 7[16.7 µM] | 4
C[C@@H]1CN([C@@H](C)CO)C(=O)c2cc(NC(=O)c3ccccc3)ccc2O[C@@H](C)CCCCO[C@H]1CN(C)C(=O)Nc1cccc2ccccc12 | 60*[16.7 µM] | -12
CNC[C@@H]1OCCCC[C@@H](C)Oc2ccc(NC(=O)CCC(F)(F)F)cc2C(=O)N([C@@H](C)CO)C[C@H]1C | 9[16.7 µM] | 12
C[C@@H]1CN([C@H](C)CO)C(=O)c2cccc(NC(=O)C3CC3)c2O[C@@H]1CN(C)C(=O)NC1CCCCC1 | 2[16.7 µM] | -2
COCCNC(=O)C[C@H]1C[C@@H]2c3cc(NC(=O)Nc4ccccc4F)ccc3O[C@@H]2[C@@H](CO)O1 | 13[16.7 µM] | -1
CCC(=O)N(C)C[C@@H]1Oc2ncc(C#CC3(O)CCCC3)cc2C(=O)N([C@@H](C)CO)C[C@@H]1C | 21[16.7 µM] | -3
C[C@@H]1CN([C@H](C)CO)S(=O)(=O)c2ccc(C#CCN(C)C)cc2O[C@H]1CN(C)C(=O)CC1CC1 | -23[16.7 µM] | 6
CCCC#Cc1cnc2c(c1)C(=O)N([C@H](C)CO)C[C@H](C)[C@@H](CN(C)C(=O)Nc1cc(F)ccc1F)O2 | -7[16.7 µM] | 12
C[C@H](CO)N1C[C@H](C)[C@@H](CN(C)Cc2ccc(C(=O)O)cc2)Oc2cc(C#CCC3CCCC3)ccc2S1(=O)=O | 15[16.7 µM] | -13
C[C@@H]1CN([C@@H](C)CO)S(=O)(=O)c2ccc(C#CCC3CCCC3)cc2O[C@H]1CN(C)C(=O)CN(C)C | -81[16.7 µM] | 7
C[C@@H]1CCCCO[C@@H](CN(C)Cc2ccc(C(F)(F)F)cc2)[C@H](C)CN([C@H](C)CO)C(=O)c2cc(NS(=O)(=O)c3ccc(Cl)cc3)ccc2O1 | 61*[16.7 µM] | 20
Cc1noc(C)c1S(=O)(=O)Nc1ccc2c(c1)CC(=O)N([C@H](C)CO)C[C@@H](C)[C@@H](CN(C)C(=O)NC1CCCCC1)O2 | -12[16.7 µM] | 1
Cc1ccccc1-c1cnc2c(c1)C(=O)N([C@H](C)CO)C[C@@H](C)[C@H](CN(C)Cc1cccnc1)O2 | 11[16.7 µM] | -4
CC(C)NC(=O)N(C)C[C@H]1Oc2ccc(NC(=O)c3ccncc3)cc2C(=O)N([C@@H](C)CO)C[C@H]1C | -5[16.7 µM] | -14

Other records follow.
SMILES | Env fusion inh | Yeast UUG start
O=C(CN1CCOCC1)N[C@@H]1CC[C@H](CCn2cc(C3CC3)nn2)O[C@H]1CO | 1[16.7 µM] | -8
COCC(=O)Nc1ccc2c(c1)C(=O)N(C)[C@@H]1CC[C@H](CC(=O)Nc3ccccc3)O[C@@H]1CO2 | 18[16.7 µM] | 3
C[C@@H]1CCCCO[C@H](CN(C)C(=O)C2CCCCC2)[C@H](C)CN([C@@H](C)CO)C(=O)c2cc(NC(=O)CCC(F)(F)F)ccc2O1 | -10[16.7 µM] | 17
C[C@H]1C=C(C(=O)N2CCN(Cc3ccccc3)CC2)O[C@@H](OCc2ccc(CO)cc2)C1 | -20[16.7 µM] | -6
COc1ccccc1C#Cc1cnc2c(c1)C(=O)N([C@@H](C)CO)C[C@@H](C)[C@@H](CN(C)C(C)=O)O2 | -14[16.7 µM] | 3
CC(C)C(=O)Nc1ccc2c(c1)C(=O)N(C)[C@H]1CC[C@@H](CC(=O)NCc3ccccc3)O[C@H]1CO2 | 9[16.7 µM] | 9
C[C@@H]1CN([C@@H](C)CO)C(=O)c2cc(C#Cc3cccnc3)cnc2O[C@H]1CN(C)Cc1cccnc1 | -26[16.7 µM] | 2
C[C@@H]1CN([C@H](C)CO)C(=O)Cc2cc(NC(=O)Cn3cnnn3)ccc2O[C@H]1CN(C)CC1CC1 | -26[16.7 µM] | -3
C[C@@H]1CN([C@H](C)CO)C(=O)c2cc(NS(C)(=O)=O)ccc2O[C@@H](C)CCCCO[C@H]1CN(C)S(=O)(=O)c1cn(C)cn1 | 14[16.7 µM] | 12
CCCNC(=O)C[C@H]1C[C@@H]2c3cc(NC(=O)NC4CCCC4)ccc3O[C@@H]2[C@H](CO)O1 | 12[16.7 µM] | -5
C[C@H](CO)N1C[C@H](C)[C@H](CN(C)Cc2ccc(F)cc2)Oc2cc(C#CC3CC3)ccc2S1(=O)=O | 13[16.7 µM] | 13
C[C@@H]1CCCCO[C@H](CN(C)Cc2ccc(C(F)(F)F)cc2)[C@H](C)CN([C@@H](C)CO)C(=O)c2cc(NC(=O)c3ccncc3)ccc2O1 | 4[16.7 µM] | 9
C[C@H]1CN([C@@H](C)CO)C(=O)c2cc(/C=C/c3ccccc3)cnc2O[C@H]1CN(C)C(=O)C1CCOCC1 | -16[16.7 µM] | 0
COc1ccc(NC(=O)Nc2ccc3c(c2)C(=O)N([C@H](C)CO)C[C@@H](C)[C@H](CN(C)Cc2ccc4c(c2)OCO4)OCCCC[C@@H](C)O3)cc1 | 20[16.7 µM] | 26
C[C@@H]1CN([C@@H](C)CO)S(=O)(=O)c2ccc(-c3cccc(F)c3)cc2O[C@@H]1CN(C)C(=O)c1cccc(F)c1 | 22[16.7 µM] | -1
CCC(=O)N(C)C[C@@H]1Oc2ncc(C#CC(C)(C)O)cc2C(=O)N([C@@H](C)CO)C[C@@H]1C | -4[16.7 µM] | -9
C[C@H]1CN([C@@H](C)CO)C(=O)c2cc(C#CC(C)(C)O)cnc2O[C@@H]1CN(C)C(=O)C1CC1 | -9[16.7 µM] | 4
CNC[C@H]1Oc2ccc(NC(=O)c3ccncc3)cc2C(=O)N([C@@H](C)CO)C[C@H]1C | -6[16.7 µM] | -13

Taken from above.
C[C@@H]1CN([C@@H](C)CO)S(=O)(=O)c2ccc(/C=C/c3ccccc3)cc2O[C@@H]1CN(C)C(=O)c1ccncc1 | Env fusion inh = 6[16.7 µM]
Cc1noc(C)c1NC(=O)N[C@H]1C=C[C@@H](CC(=O)Nc2ccc(-c3ccccc3)cc2)O[C@@H]1CO | Yeast UUG start = -9
C[C@@H]1CN([C@H](C)CO)S(=O)(=O)c2ccc(C#CCN(C)C)cc2O[C@H]1CN(C)C(=O)CC1CC1 | Yeast UUG start = 6
C[C@@H]1CCCCO[C@H](CN(C)C(=O)C2CCCCC2)[C@H](C)CN([C@@H](C)CO)C(=O)c2cc(NC(=O)CCC(F)(F)F)ccc2O1 | Yeast UUG start = 17

Gathered by group: those above with bromine (two)
SMILES | Env fusion inh | Yeast UUG start
COc1ccccc1NC(=O)N(C)C[C@H]1Oc2cc(Br)ccc2S(=O)(=O)N([C@@H](C)CO)C[C@@H]1C | 25[16.7 µM] | 162*
C[C@@H]1CN([C@H](C)CO)C(=O)c2cc(Br)cnc2O[C@H]1CN(C)C(=O)Nc1ccccc1 | -10[16.7 µM] | 19
